Polio RdRp inh: inhibitors of poliovirus RNA polymerase binding and polymerization | 150,000 compounds, 0.66% hits | % elongation, % (compound at 16.7 µg/mL) | AID 588519 | poliovirus polymerase elongation, fluorescence polarization; stronger effect = lower value; in the data active = % elongation below about 90%; also: some results filed as inactive read as strong as hits
Target sequence (P03300 1749-2209 limits assumed): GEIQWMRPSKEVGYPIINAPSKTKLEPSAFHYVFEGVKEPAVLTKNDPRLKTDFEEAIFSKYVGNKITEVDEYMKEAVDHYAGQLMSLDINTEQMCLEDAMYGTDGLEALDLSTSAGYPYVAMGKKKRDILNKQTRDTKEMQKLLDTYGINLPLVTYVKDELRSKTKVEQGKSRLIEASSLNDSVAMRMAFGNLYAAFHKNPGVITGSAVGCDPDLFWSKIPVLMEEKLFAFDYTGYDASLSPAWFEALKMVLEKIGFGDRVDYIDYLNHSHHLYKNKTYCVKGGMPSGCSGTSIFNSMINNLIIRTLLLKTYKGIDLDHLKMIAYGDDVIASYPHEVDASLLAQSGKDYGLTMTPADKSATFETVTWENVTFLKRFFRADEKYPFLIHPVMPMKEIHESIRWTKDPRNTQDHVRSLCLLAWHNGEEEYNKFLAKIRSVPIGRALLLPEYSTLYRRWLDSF
Polio RdRp inh intensity: also measured in Polio RdRp inh; calls as there; % elongation; measured here: total intensity read-out; formula for this scale not given here;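 total fluorescence in place of polarization; lower means less elongation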
An asterisk follows results filed as active.

SMILES	Polio RdRp inh	Polio RdRp inh intensity
CC(CCc1ccccc1)NC(=O)Cn1ncc2c3ccccc3n(Cc3ccccc3F)c2c1=O (stereo not given)	110	112
CCOc1ccc(C(=O)NCCc2sc(-c3cccc(F)c3)nc2C)cc1OCC	109	112
CCOc1ccc(CNC(=O)CN2C(=O)C3CCCCN3c3ccc(C(=O)N4CCCC4)cc32)cc1 (stereo not given)	114	105
Cc1ccc(C)c(NC(=O)CSc2nc3c([nH]c4ccccc43)c(=O)n2-c2ccc(F)cc2)c1	111	108
CC(C)NC(=O)Cn1ccc2cc(S(=O)(=O)N3CCCCCC3)ccc21	106	112
CCOc1ccccc1NC(=O)N1CCN(Cc2nc3ccc(C)cc3o2)CC1	112	109
COc1ccc2c(c1)c1c(c(=O)n(-c3ccc(OC)c(OC)c3)c(=O)n1Cc1ccc(C)cc1)n2C	104	109
COCc1cc(C)nc2sc3c(c12)NC(c1ccc(O)c(OC)c1)N(c1ccccc1)C3=O (stereo not given)	110	114
CCCNC(=O)CN1C(=O)COc2ccc(S(=O)(=O)N3CCCCCC3)cc21	104	110
COc1ccc(CCNC(=O)c2cccc(-n3cnc4cccnc43)c2C)cc1OC	105	102
CCCCOc1ccc(C(=O)NCc2nnnn2-c2ccc(C)c(C)c2)cc1	105	116
O=C(NC1CCCCC1)c1ccc(CSc2nc3ccncc3n2Cc2ccc(F)cc2)cc1	108	111
CCc1ccccc1NC(=O)C(NS(=O)(=O)c1ccc2c(c1)CCC(=O)N2)c1ccccc1 (stereo not given)	113	112
Cc1cccc(-n2c3nc(=O)n(C)c(=O)c-3cc3ccc(Cl)cc32)c1C	108	110
Cc1cc(C)c2c(n1)nn1c(C)c(CCC(=O)NCc3ccccc3Cl)c(C)nc21	102	103
O=C(COc1ccccc1F)Nc1ccccc1OCc1cc(=O)n2ccccc2n1	100	106
Cc1oc(-c2ccccc2)nc1CNC(=O)NC1CCCCC1	106	109
COc1ccccc1C(=O)Nc1nnc(SCc2cc(=O)c3ccccc3[nH]2)s1	102	102
Cc1cc(C(F)F)n2nc(C(=O)Nc3ccc(C(C)C)cc3)nc2n1	100	103
CC(Oc1ccccc1)C(=O)Nc1ccccc1C(=O)OCc1cc(=O)n2nc(C(C)C)sc2n1 (stereo not given)	108	109
COc1ccccc1/C=C(\C#N)C(=O)NCC1CCCO1 (stereo not given)	99	97
CN(CC(=O)Nc1ccc(Cl)cc1F)S(=O)(=O)c1ccc2c(c1)n(C)c(=O)c(=O)n2C	100	101
Cc1ccc(-c2cc3ncc4c(n3n2)-c2cc(F)ccc2OC4)cc1	103	107
N#Cc1nc(/C=C/c2ccc(F)cc2)oc1N1CCCCCC1	110	108
Cc1cccc(C(=O)N2CCc3cc(CNC(=O)c4ccnn4C)ccc32)c1	105	105
CCOC(=O)C1CCN(C(=O)c2ccc3c(c2)sc2nc(-c4ccc(C)cc4)cn23)CC1	103	94
COc1ccc(CNC(=O)c2cnc(N3CCCC3)nc2C)cc1	102	108
Cc1cccc(NC(=O)C2CCCN(S(=O)(=O)c3ccc4c(c3)oc(=O)n4C)C2)c1C (stereo not given)	108	110
COc1ccc(S(=O)(=O)N2CCC(N3CCN(Cc4ccc(F)cc4)C(=O)C3=O)CC2)cc1	104	103
CCN(CC)S(=O)(=O)c1ccc2c(c1)N(CC(=O)NCCc1ccccc1)C(=O)CO2	107	105
COc1ccc(CNC(=O)CN2C(=O)COc3ccc(S(=O)(=O)N4CCCCC4)cc32)cc1	118	117
Cc1c(NC(=O)Nc2ccc(Br)cc2F)sc2nc3n(c(=O)c12)CCC(C)CC3 (stereo not given)	108	112
CCC(C(=O)NCCc1ccc(SC)cc1)n1nc(C)c2sc3ccccc3c2c1=O (stereo not given)	110	115
Cc1cccc(CCNC(=O)c2nc(-c3ccc(Cl)cc3)n3c2CCCCC3)c1	107	114
CCOC(=O)C1CCCN(C(=O)c2nn(-c3ccc(C)cc3)c(=O)n(C)c2=O)C1 (stereo not given)	112	116
O=S(=O)(Nc1nc2n(n1)C(c1ccc(F)cc1)C=C(c1ccc(Cl)cc1)N2)c1ccccc1 (stereo not given)	98	160
CCN(CC)C(=O)Cn1cc(SCC(=O)Nc2cccc(C)c2)c2ccccc21	104	102
CCCN(CCC)CCCNC(=O)Cn1ncc2c3ccccc3n(Cc3ccccc3)c2c1=O	108	108
O=C(CCC1N=C2c3ccccc3N=C(SCc3ccc(F)cc3)N2C1=O)NCc1ccc(F)cc1 (stereo not given)	106	112
CC(=O)N1CCc2cc(CNC(=O)Nc3ccccc3C(F)(F)F)ccc21	102	107
CCCOc1ccc(-c2nonc2NC(=O)c2cc(OC)c(OC)c(OC)c2)cc1OCCC	112	106
CCCCC(=O)OCc1cc(=O)n2nc(C3CCCCC3)sc2n1	102	98
Cc1cccc2c1-c1sc(C(=O)NCCCN3CCN(c4cccc(Cl)c4)CC3)cc1CO2	104	98
COc1ccc(N2CC(NC(=O)COc3ccc(F)cc3)CC2=O)cc1OC (stereo not given)	105	111
CCOC(=O)c1c(S(=O)(=O)NCC(=O)NCc2ccc(C)cc2)c(C)n(C)c1C	110	112

In a second layout: results already given
SMILES,Polio RdRp inh,Polio RdRp inh intensity
Cc1c(NC(=O)Nc2ccc(Br)cc2F)sc2nc3n(c(=O)c12)CCC(C)CC3 (stereo not given),108,112
CCC(C(=O)NCCc1ccc(SC)cc1)n1nc(C)c2sc3ccccc3c2c1=O (stereo not given),110,115
Cc1cccc(CCNC(=O)c2nc(-c3ccc(Cl)cc3)n3c2CCCCC3)c1,107,114
CCOC(=O)C1CCCN(C(=O)c2nn(-c3ccc(C)cc3)c(=O)n(C)c2=O)C1 (stereo not given),112,116

Additional results.
SMILES	Polio RdRp inh	Polio RdRp inh intensity
CCOC(=O)c1c(NC(=O)COc2cc(C)ccc2C(C)C)sc(C)c1C	89*	88*
Cc1cccc(NC(=O)N2CCC(CN3CCC(C)CC3)CC2)c1C	113	113
CCC1=Nc2cc(C(=O)NCCc3ccc(OC)c(OC)c3)ccc2Sc2ccccc21	113	118
COc1cccc(C(=O)Oc2c(Sc3ccc(C)cc3)c(C)nn2C(C)(C)C)c1OC	106	108
CCOc1ccccc1NC(=O)CSc1nnc(N)s1	101	104
CNc1oc(/C=C/c2cc(OC)c(OC)c(OC)c2)nc1C#N	110	113
CC(=O)c1ccc(NC(=O)Cn2nc(N3CCN(c4ccccc4)CC3)ccc2=O)cc1	108	109
Cc1ccc2cc3cc(C(=O)N4CCN(c5ccccc5)CC4)oc3nc2c1	108	106
Cc1oc2ncnc(N3CCCCC3)c2c1C(=O)NCC1CCN(Cc2cccc(F)c2)CC1	109	109
COc1ccc(-c2noc(CCCC(=O)Nc3cccc(Cl)c3C)n2)cc1	110	106
O=C(Nc1ccccc1F)C(c1ccccc1)N1Cc2ccccc2C1=O (stereo not given)	107	112
CCOCCc1nn2c(=O)cc(COC(=O)c3cccs3)nc2s1	112	101
COc1ccc(OCC(=O)N2CCN(Cc3cc(=O)n4nc(-c5ccccc5C)sc4n3)CC2)cc1	105	97
COCCn1c(SCC(=O)Nc2cc(Cl)ccc2OC)nc2c([nH]c3ccccc32)c1=O	115	104
CCCNC(=O)CN1C(=O)COc2ccc(S(=O)(=O)N3CCC(C)CC3)cc21	103	99
Cc1cccc(N2CCN(C(=O)c3cnn(-c4ccccc4Cl)c3C3CCN(C(=O)OC(C)(C)C)CC3)CC2C)c1 (stereo not given)	106	112
CCCCNC(=O)c1cccc(-n2c(C)nc3cccnc32)c1	114	115
COc1cccc(C2CC(=O)Nc3cc4c(cc32)OCO4)c1OC(C)C (stereo not given)	107	109
Cc1cccc(-c2nc(SCC(=O)NCC3CCCO3)c3c(=O)n(C)c(=O)n(C)c3n2)c1 (stereo not given)	111	105
NC(=O)CSc1nc2c(oc3ccccc32)c(=O)n1Cc1ccccc1	107	108
CCCOc1ccc(-c2cccc(NS(=O)(=O)c3cc(OC)ccc3OC)c2)nn1	92	97
COc1ccc(Cl)cc1NC(=O)CN1C(=O)CN=C(c2ccccc2)c2cc(Cl)ccc21	109	105
COc1ccc(-n2c(SCC(=O)Nc3ccc(Cl)c(C)c3)nc3n[nH]c(C)c3c2=N)cc1	105	105
CCOc1ccccc1NC(=O)Cn1c(=O)n(Cc2ccccc2)c(=O)c2c3c(sc21)CN(C(C)=O)CC3	100	106
Cc1ccc(C(=O)CSc2nnc3ccc4ccccc4n23)cc1	103	117
O=C(CCC(=O)N1CC2CCCN2c2ccccc21)NCc1ccccc1Cl (stereo not given)	103	109
COc1cccc(CNC(=O)Cc2c(C)c3ccc(OC)c(C)c3oc2=O)c1	112	111
CCOc1ccc(C(=O)N2CCC(c3noc(-c4ccc(S(=O)(=O)N5CCCC5)cc4)n3)CC2)cc1	113	108
O=C(Nc1ccc(OCc2cc(=O)n3c4c(sc3n2)CCCC4)cc1)c1cccc(F)c1	104	106
COc1cc(Nc2nc(SCC(=O)c3ccc(Br)cc3)nc3ccccc23)cc(OC)c1	110	115

Looked up above.
In Polio RdRp inh, CCOc1ccccc1NC(=O)Cn1c(=O)n(Cc2ccccc2)c(=O)c2c3c(sc21)CN(C(C)=O)CC3 has the entry 100
In Polio RdRp inh, COc1cc(Nc2nc(SCC(=O)c3ccc(Br)cc3)nc3ccccc23)cc(OC)c1 has the entry 110
In Polio RdRp inh, COc1cccc(C2CC(=O)Nc3cc4c(cc32)OCO4)c1OC(C)C (stereo not given) has the entry 107
In Polio RdRp inh, Cc1cccc(-c2nc(SCC(=O)NCC3CCCO3)c3c(=O)n(C)c(=O)n(C)c3n2)c1 (stereo not given) has the entry 111
In Polio RdRp inh intensity, CCCCNC(=O)c1cccc(-n2c(C)nc3cccnc32)c1 has the entry 115
In Polio RdRp inh, COc1cccc(CNC(=O)Cc2c(C)c3ccc(OC)c(C)c3oc2=O)c1 has the entry 112
In Polio RdRp inh, O=C(CCC(=O)N1CC2CCCN2c2ccccc21)NCc1ccccc1Cl (stereo not given) has the entry 103

Fetched one by one from above, 4 records:
SMILES	Polio RdRp inh	Polio RdRp inh intensity
O=C(CCC(=O)N1CC2CCCN2c2ccccc21)NCc1ccccc1Cl (stereo not given)	103	109
NC(=O)CSc1nc2c(oc3ccccc32)c(=O)n1Cc1ccccc1	107	108
COc1cccc(CNC(=O)Cc2c(C)c3ccc(OC)c(C)c3oc2=O)c1	112	111
Cc1cccc(N2CCN(C(=O)c3cnn(-c4ccccc4Cl)c3C3CCN(C(=O)OC(C)(C)C)CC3)CC2C)c1 (stereo not given)	106	112

Reformatted: results already given.
Each structure is followed by: Polio RdRp inh	Polio RdRp inh intensity
COc1ccc(-n2c(SCC(=O)Nc3ccc(Cl)c(C)c3)nc3n[nH]c(C)c3c2=N)cc1
→ 105	105
CCOc1ccc(C(=O)N2CCC(c3noc(-c4ccc(S(=O)(=O)N5CCCC5)cc4)n3)CC2)cc1
→ 113	108

More entries
SMILES	Polio RdRp inh	Polio RdRp inh intensity
O=C(COc1ccccc1Cl)Nc1nc(-c2ccc(F)cc2)ns1	103	110
CCOC(=O)c1cc(-c2ccccc2)n(CCC(=O)NCCc2ccc(C)cc2)c1C	104	108
CCOc1ccccc1C(=O)NC1(C(F)(F)F)C(=O)Nc2c1c(=O)[nH]c(=O)n2-c1ccccc1 (stereo not given)	103	106
COc1cc(OC)cc(-c2nnc(SCC(=O)N3CCC(C)CC3)o2)c1	106	108
Cc1c(Cl)cccc1NC(=O)Nc1nnc(N(C)Cc2ccccc2)s1	108	114
CC(C)COc1ccc(C(=O)N2CCN(CCc3ccncc3)CC2)cc1	101	105
CCOc1ccc(-n2c(SCC(=O)N3CCCc4ccccc43)nc3c([nH]c4ccccc43)c2=O)cc1	103	112
COc1cccc(NC(=O)N(CCC(C)C)C2CCN(C(C)C)CC2)c1	116	121
COc1ccc(-c2cc(C(C)=O)c(C)n2CCC(=O)Nc2ccc(C)c(Cl)c2)cc1	103	106
Cc1ccc(C)c(N2CCN(C(=O)C3CCCN(S(=O)(=O)c4ccc5c(c4)oc(=O)n5C)C3)CC2)c1 (stereo not given)	109	110
CC1CCCN(Cc2c(O)ccc3c(=O)c(Oc4ccccc4Cl)c(C(F)(F)F)oc23)C1 (stereo not given)	105	108
Cc1coc2cc3oc(=O)c(CC(=O)NCc4ccccc4)c(C)c3cc12	113	116
Cc1ccc(-n2c(=O)c3ccc(C(=O)NCc4ccco4)cc3n(Cc3ccccc3C#N)c2=O)cc1	98	96
COc1ccc(C2CC(=O)c3cc(-c4nc(-c5cccc([N+](=O)[O-])c5)cs4)c(=O)n(-c4cc(C)cc(C)c4)c3C2)cc1 (stereo not given)	106	107
Cc1ccc(C)c(NC(=O)CN(CCc2ccccc2)S(=O)(=O)c2ccccc2)c1	102	101
CC1CCCCN1C(=O)c1ccc2c(c1)N(Cc1ccc(F)cc1)C(=O)c1ccccc1S2(=O)=O (stereo not given)	98	103
Cc1cccc(N2CCN(C(=O)Cn3nc(Cc4cccnc4)c4ccccc4c3=O)CC2)c1C	109	109
Cc1cccc(S(=O)(=O)c2cn(Cc3ccccc3)c3cc(N4CCOCC4)c(F)cc3c2=O)c1	110	112
CCCCN1C(=O)C(NC(=O)c2ccc(C(C)(C)C)cc2)(C(F)(F)F)C(C(=O)OC)=C1C (stereo not given)	107	108
O=C(Cn1c(=O)nc(-c2ccccc2)c2cc(Cl)ccc21)Nc1ccc(F)c(Cl)c1	104	108
Cc1ccc(-n2c(/C=C/c3ccc(Br)s3)nc3ccccc3c2=O)cc1	113	111
NS(=O)(=O)c1ccc(CCNC(=O)CCn2c(=O)c3cccn3c3cccnc32)cc1	111	116
COc1ccccc1Nc1ncc2c(n1)CCN(CC(C)C)C2	103	104
CC1CCCCN1C(=O)CSc1nnc(-c2ccccc2Cl)o1 (stereo not given)	107	106
CC(C)NC(=O)CSc1nc2ccccc2nc1N1CCCCC1	100	103
CCN(CC)c1nc2c(-c3cccc(Br)c3)nnn2c2ccccc12	110	111
COc1ccccc1CNC(=O)c1ccc2c(c1)nc(C)n2-c1ccccc1OC	107	108
COc1cc(NC(=O)c2cc3ccc4cccnc4c3[nH]2)cc(OC)c1OC	108	110

An excerpt (hit frequency here may not be typical).
